Source: PubChem BioAssay (National Center for Advancing Translational Sciences (NCATS))
Rango-impB inh: Rango-importin beta binding inhibition; Rango CFP/YFP FRET sensor + importin beta, 45 min; Potency, µM (titrated, usually from 92.2 µM), for the others: at the top dose inhibition of complex formation; hit rate 0.031% among 340,000; active = rising FRET ratio curve, often small or poorly fitted; inconclusive = mostly compound fluorescence or quenching in the first reads; inactive = flat curves in all reads;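 further: potency means the concentration at half of the fitted maximal effect; 0% = DMSO wells and 100% = buffer wells lacking importin beta; nearly all actives have a fitted effect of over 15% in size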
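Inhibition scored from the CFP 486 nm/YFP 530 nm FRET ratio 45 min after adding 0.125 microM importin beta to 50 nM Rango biosensor preincubated 5 min with compound (room temperature, PBS with DTT, Tween-20, BSA). No-importin wells as positive control.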
miR-21 reporter: raises the signal of a miR-21 reporter; 340,000 tested, under 10 active; Potency, µM (top dose mostly 38.3 µM), without a hit: at the top dose reporter change, positive = more light; HeLa miR-21 FLuc reporter, luciferase, 48 h; active = well fitted rising curve with a large enough effect; inconclusive = small, poorly fitted or top-dose-only effect; inactive = no such curve, though single readings can be large or run the other way;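 further: % of control where 0% means no effect; miR-21 action dims this reporter so a rising signal means less miR-21 action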
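HeLa cells endogenously expressing miR-21, stably carrying CMV-driven firefly luciferase with a downstream miR-21 binding site, 2000 cells/well. Titrations up to approximately 40 uM, 48 hours; luciferase luminescence read.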
Rango dissoc inh: inhibition of RanGTP-driven Rango-importin beta dissociation | O95149+P62826 | Biochemical FRET Rango-importin beta, RanGTP-induced dissociation | hit rate 0.071% among 340,000 | Potency, µM (doses to about 46.1 µM), for the others: top-dose activity change, negative = inhibition; active means falling FRET ratio curve, often poorly fitted, with flat reads before Ran was added; inconclusive means other falling curves, or compound fluorescence or quenching; inactive means flat or rising ratio curve;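 further: potency means the concentration at half of the fitted maximal effect; % of control where 0% means no effect; nearly all actives have a fitted effect of over 45% in size; -100% = wells without RanGTP and RCC1; the record marks most hits as doubtful in a second field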
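Two FRET readings bracket the reaction: one 5 min after compound meets Rango–importin beta, another 45 min after RanGTP-RCC1 (0.6 uM Ran, 0.2 uM RCC1, 2 mM GTP) is added. Only the second defines inhibition.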
GLA inh pH 4.5: inhibitors of human alpha-galactosidase A at pH 4.5. P06280. 230,000 tested, under 10 active. activity change, negative = inhibition, % at 105 µM. AID 1467. purified enzyme, 4-MU-alpha-Gal fluorescence, pH 4.5; inconclusive = small, poorly fitted or top-dose-only inhibition, or a rising curve; inactive = flat fitted curve, though single readings scatter; no compound was filed as active;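 further: 0% = full activity with enzyme and -100% = basal without enzyme; dose as in the result columns while the protocol names 77 µM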
Target sequence (P06280 whole entry, looked up): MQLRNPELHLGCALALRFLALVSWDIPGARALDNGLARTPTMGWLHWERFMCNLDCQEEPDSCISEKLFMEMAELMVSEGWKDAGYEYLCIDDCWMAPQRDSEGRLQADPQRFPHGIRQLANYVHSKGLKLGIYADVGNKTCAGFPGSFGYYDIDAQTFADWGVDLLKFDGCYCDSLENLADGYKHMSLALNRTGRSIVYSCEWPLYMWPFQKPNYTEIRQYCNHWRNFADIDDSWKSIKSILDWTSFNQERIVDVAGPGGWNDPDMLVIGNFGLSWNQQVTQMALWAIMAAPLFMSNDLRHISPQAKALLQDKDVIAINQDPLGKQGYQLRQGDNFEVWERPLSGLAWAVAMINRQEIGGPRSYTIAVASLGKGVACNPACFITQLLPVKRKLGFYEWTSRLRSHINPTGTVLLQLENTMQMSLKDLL
* hit, by the source's call; ? = inconclusive; . = not tested or not shown; [ ] = another dose, or the depositor's remark.

A first look (16 entries):
SMILES	Rango dissoc inh	miR-21 reporter	Rango-impB inh	GLA inh pH 4.5
COc1cc(/C=N/NC(=O)c2cccnc2)ccc1OC(=O)c1ccco1	1%	0%	11%	-8
COc1ccc(C(=O)N2CCN(Cc3ccc4c(c3)OCO4)CC2)cc1[N+](=O)[O-]	-8%	8%	-1.4%	3
CC1(C)CC(=O)C2=C(C1)OC1=C(C(=O)CC(C)(C)C1)C2c1ccc(O)c([N+](=O)[O-])c1	-9%	2%	-0.3%	-2[21.1 µM]
NC(=O)CC[C@@H]1NC(=O)[C@@H]2CCCN2C(=O)c2cc([N+](=O)[O-])cc(I)c2NCCCC[C@@H](C(=O)NC(CC(=O)O)C(N)=O)NC1=O (some centres not stated)	-2%	-1%	?	0
CCn1c(NC(=O)c2ccccc2F)c(-c2cccs2)c(=O)c2ccccc21	-5%	1%	-0.7%	10
Cc1noc(C)c1CSc1nnc2sc3ccccc3n12	9%	-8%	-0.2%	8
S=C(NCc1ccccc1)Nc1ccc(Cl)cc1	-1%	-2%	-5.6%	1
Cc1nn2cc(-c3ccc(-c4ccccc4)cc3)nc2s1	10%	-32%	0.2%	5
Cc1cnc(C(=O)OCC(=O)N2CCN(S(=O)(=O)c3ccc(Cl)cc3)CC2)cn1	10%	.	-0.1%	.
O=C(NC(=S)Nc1ccc(N2CCOCC2)c(Cl)c1)C(c1ccccc1)c1ccccc1	-14%	2%	0.4%	-24
O=C(Nc1nnc(C2CC2)s1)c1ccncc1	16%	-13%	-3.0%	9
CCCC1S/C(=N/N=C/c2ccc(OC)cc2)N(Cc2ccc(OC)cc2)C1=O (configuration not stated)	2%	-17%	0.0%	1
O=[N+]([O-])c1ccc(OCc2cccc(COc3ccc([N+](=O)[O-])cc3)n2)cc1	-16%	-7%	6.3%	-7
COc1ccc(C2=NOC(CNC(=O)c3ccccc3Br)C2)c(OC)c1 (configuration not stated)	31%	-2%	1.5%	0
O=C1NC(=Nc2ccccc2Cl)S/C1=C\c1cc([N+](=O)[O-])ccc1O	?	-5%	?	.
CCOc1ccccc1Nc1nnc(Cc2ccccc2Cl)c(=O)[nH]1	-1%	-3%	-3.1%	3

All compounds of this part, repeating the preview:
SMILES	Rango dissoc inh	miR-21 reporter	Rango-impB inh	GLA inh pH 4.5
COc1cc(/C=N/NC(=O)c2cccnc2)ccc1OC(=O)c1ccco1	1%	0%	11%	-8
COc1ccc(C(=O)N2CCN(Cc3ccc4c(c3)OCO4)CC2)cc1[N+](=O)[O-]	-8%	8%	-1.4%	3
CC1(C)CC(=O)C2=C(C1)OC1=C(C(=O)CC(C)(C)C1)C2c1ccc(O)c([N+](=O)[O-])c1	-9%	2%	-0.3%	-2[21.1 µM]
NC(=O)CC[C@@H]1NC(=O)[C@@H]2CCCN2C(=O)c2cc([N+](=O)[O-])cc(I)c2NCCCC[C@@H](C(=O)NC(CC(=O)O)C(N)=O)NC1=O (some centres not stated)	-2%	-1%	?	0
CCn1c(NC(=O)c2ccccc2F)c(-c2cccs2)c(=O)c2ccccc21	-5%	1%	-0.7%	10
Cc1noc(C)c1CSc1nnc2sc3ccccc3n12	9%	-8%	-0.2%	8
S=C(NCc1ccccc1)Nc1ccc(Cl)cc1	-1%	-2%	-5.6%	1
Cc1nn2cc(-c3ccc(-c4ccccc4)cc3)nc2s1	10%	-32%	0.2%	5
Cc1cnc(C(=O)OCC(=O)N2CCN(S(=O)(=O)c3ccc(Cl)cc3)CC2)cn1	10%	.	-0.1%	.
O=C(NC(=S)Nc1ccc(N2CCOCC2)c(Cl)c1)C(c1ccccc1)c1ccccc1	-14%	2%	0.4%	-24
O=C(Nc1nnc(C2CC2)s1)c1ccncc1	16%	-13%	-3.0%	9
CCCC1S/C(=N/N=C/c2ccc(OC)cc2)N(Cc2ccc(OC)cc2)C1=O (configuration not stated)	2%	-17%	0.0%	1
O=[N+]([O-])c1ccc(OCc2cccc(COc3ccc([N+](=O)[O-])cc3)n2)cc1	-16%	-7%	6.3%	-7
COc1ccc(C2=NOC(CNC(=O)c3ccccc3Br)C2)c(OC)c1 (configuration not stated)	31%	-2%	1.5%	0
O=C1NC(=Nc2ccccc2Cl)S/C1=C\c1cc([N+](=O)[O-])ccc1O	?	-5%	?	.
CCOc1ccccc1Nc1nnc(Cc2ccccc2Cl)c(=O)[nH]1	-1%	-3%	-3.1%	3
Cc1ccc(NC(=O)COC(=O)CCc2ccccc2)cc1S(=O)(=O)N1CCOCC1	2%	.	2.0%	.
Cc1cccc(NC(=O)CCN2CCC(C(N)=O)CC2)c1	0%	0%	-1.8%	.
Nc1ccc2nc(SCc3cccc(F)c3)sc2c1	-11%	-44%	-2.9%	2
O=C1C=C(c2ccccc2)C[C@H](c2cccs2)[C@H]1n1nnc([N+](=O)[O-])n1	-4%	?	-0.2%	3
CCOc1cccc(NC(=O)CSc2nc(C)c3c(c2C#N)CCCC3)c1	-3%	6%	-0.6%	-7
CCOC(=O)C1CCCN(C2CC(=O)N(c3cccc(C)c3)C2=O)C1 (configuration not stated)	1%	-5%	-3.2%	8
COC(=O)c1ccc(NC(=O)CSc2nc3[nH]ncc3c(=O)[nH]2)cc1	3%	.	0.6%	.
O=C1CCCc2ccccc2N1Cc1c(Cl)cccc1Cl	-16%	4%	-0.7%	-10
CC1=NN(Cc2ccccc2)C(=O)/C1=C\c1ccc(N(C)C)cc1	0%	-13%	5.8%	-15
CNc1c([N+](=O)[O-])cnn1-c1ccc(C)cc1	5%	-13%	-0.2%	5
COc1cccc(/C=N/NC(=O)c2oc3nc(-c4ccccc4)cc(-c4ccco4)c3c2N)c1	?	10%	?	-15
COc1ccc(CCNC(=O)c2cc(S(=O)(=O)N3CCCCCC3)ccc2OC)cc1OC	-21%	.	0.8%	.
CC1CCc2nc(NC(=O)CSc3nc4ccccc4o3)sc2C1 (configuration not stated)	3%	-6%	-2.9%	-1
Cc1cc[n+](CC(=O)c2ccc(NC(=O)c3ccccc3)cc2)c2ccccc12	27%	23%	-4.5%	-4
CCC(=O)Nc1ccc(C(=O)CSc2nnc(-c3ccc(O)cc3)n2CC2CCCO2)cc1OC (configuration not stated)	9%	0%	2.4%	2
CCOC(=O)N1CCN(C(=O)c2ccc3[nH]c(C)c(C)c3c2)CC1	-14%	.	?	.
CCCS(=O)(=O)NCCc1cc2cc(C)c(C)cc2[nH]c1=O	-16%	-29%	4.9%	-10
CC(C)CN1C(=O)c2ccccc2C1(O)Cc1ccccc1 (configuration not stated)	2%	9%	2.3%	-4
Cc1c(Cl)cccc1NC(=S)N1CCN(C(=O)C2CCCO2)CC1 (configuration not stated)	-12%	-7%	-1.8%	1
O=C(NC1CCCC1)C(c1ccncc1)N(C(=O)c1csnn1)c1ccc(Cl)cc1 (configuration not stated)	1%	-6%	-1.0%	.
Cc1cccc(N2CCN(Cc3cc(=O)n4ccsc4n3)CC2)c1C	4%	-1%	-2.2%	-6
O=C(Nc1ccccc1C(=O)N/N=C/c1ccco1)c1ccc(Cl)cc1	-8%	-18%	2.8%	-6
Cc1ccc(-n2nc3c(=O)n(C(C)C(=O)NCc4ccccc4Cl)nc(C)c3c2C)cc1 (configuration not stated)	0%	24%	4.9%	.
S=C(NCCCN1CCN(CCCNC(=S)NC2CCCCC2)CC1)NC1CCCCC1	-9%	.	0.7%	.
C/C(CC(=O)Nc1ccc2c(c1)OCCO2)=N\NC(=O)c1ccccn1	1%	-34%	3.2%	0
Cc1ccc(S(=O)(=O)N(C)c2ccccc2C(=O)Nc2c(F)cccc2F)cc1	0%	-4%	-1.3%	.
O=C(NCC(c1ccco1)N1CCCC1)c1cc2cc(Cl)ccc2o1 (configuration not stated)	10%	.	0.6%	.
NC(=NC1CCCCC1)c1ccc([N+](=O)[O-])cc1	-5%	3%	-0.8%	-1
CCOC(CCn1ccc(O)c(Cc2ccc(Cl)cc2)c1=O)OCC	0%	-5%	2.9%	.
CN1C(=O)C2ON(c3ccccc3)C(c3cccs3)C2C1=O (configuration not stated)	-11%	-1%	0.3%	-2
CCN(CC)S(=O)(=O)c1ccc(OCC2CCCCO2)c([N+](=O)[O-])c1 (configuration not stated)	-17%	-10%	-1.7%	.
COc1ccc(-c2nc(CS(=O)(=O)CC(=O)NCc3cccc(OC)c3OC)c(C)o2)cc1	9%	6%	3.0%	.
COC(=O)C(C(C)C)N(Cc1cc(OC)cc(OC)c1)S(=O)(=O)CCl (configuration not stated)	-5%	.	-0.3%	.
O=C1C(Cc2ccc(F)cc2)SC(=Nc2ccccc2)N1c1ccccc1 (configuration not stated)	0%	-9%	-3.4%	-7

Next results.
SMILES	Rango dissoc inh	miR-21 reporter	Rango-impB inh	GLA inh pH 4.5
CN(C)CCN(C(=O)c1ccc2ccccc2c1)c1nc2c(F)cc(F)cc2s1	8%	-6%	0.8%	.
CCOC(=O)C1=C(COc2ccc(C)cc2)NC(=O)NC1c1cc(C)ccc1C (configuration not stated)	-2%	-1%	?	0
O=[N+]([O-])c1cc(S(=O)(=O)Nc2cccc(Cl)c2)ccc1N/N=C/c1ccc(N2CCOCC2)cc1	?	-4%	?	0
Cc1onc(-c2ccccc2)c1CNS(=O)(=O)c1ccccc1[N+](=O)[O-]	12%	3%	-2.5%	-5
COc1ccc(CSc2nc(C)cc(C)c2S(C)(=O)=O)cc1	27%	2%	-3.8%	1
C/C(=C\C(=O)c1ccc(C)o1)Nc1ccc(C(=O)O)cc1C	-28%	-6%	?	4
CCS(=O)(=O)c1ccc(O)c(NC(=O)CCCC(=O)O)c1	-2%	1%	0.7%	0
Cc1ccc(C)c(Nc2ncnc(N)c2[N+](=O)[O-])c1	1%	-10%	0.6%	-3
COc1ccc(-c2cc(C(F)(F)F)n3nc(C(=O)NCCCn4ccnc4)cc3n2)cc1	?	-17%	?	-4
CCOc1cc(/C=C(\C#N)c2nc(-c3cccs3)c(NC(C)=O)s2)ccc1O	?	10%	?	-27
O=C1CCc2cc(NS(=O)(=O)c3ccc(Br)cc3)cc3c2N1CC3	-10%	.	0.1%	.
COc1ccc2c(c1)OC[C@H]1[C@H]2N2C(=O)c3ccccc3NC(=O)[C@@]2(C)[C@H]1c1ccccc1	-10%	.	-2.0%	.
Cc1n[nH]c(=O)c2c(NC(=O)COC(=O)COc3cccc(Br)c3)oc(C)c12	-2%	.	-2.2%	.
O=C(C1=C[C@@H](c2ccc(C(F)(F)F)cc2)C[C@@H](OCCCCO)O1)N1CCN(Cc2ccccc2)CC1	-12%	?	6.7%	-1
Cc1ccc(S(=O)(=O)Cn2nnnc2CN(Cc2ccco2)CC2CCCO2)cc1 (configuration not stated)	2%	-4%	0.5%	7
Cc1ccc(S(=O)(=O)N2CCOCC2)cc1C(=O)Nc1ccncc1	32%	.	-2.0%	.
O=C(CSc1nc2ccccc2nc1N1CCCCC1)N1CCN(c2ccccc2)CC1	-2%	0%	-0.7%	.
O=C(NC1CCCCC1)c1cc([N+](=O)[O-])ccc1N1CCCC1	12%	-1%	4.1%	.
COc1ccccc1OCc1ccc(C(=O)NCC2CCCO2)o1 (configuration not stated)	17%	-2%	-7.7%	-10

Some of the compounds tested; count on the stated rates, not on these rows.
